Assay outcomes from PubChem BioAssay.
Vaccinia stage: blocks a specific stage of Vaccinia orthopoxvirus infection; activity change (mCherry), % (test concentration not listed); Vaccinia-infected cells, mCherry/Venus stage reporter fluorescence; hits give low values; some inactives read as strong as hits; hit rate 0.01% among 89,000;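 active = mCherry past -33% and 40 or more points under the early reporter, replicates agreeing; inconclusive = past -33% without that gap or agreement; tested in A549 cells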;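 also: scaled between vehicle wells and reference inhibitor wells; 23 nL library stock went into each well; one replicate is shown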
Vaccinia stage Venus: further read-out of Vaccinia stage, marked with its call; activity change (Venus), %; measured here: Venus reporter, other viral stage;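 negative = less Venus signal; first of two replicates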
The depositor's hits bear a star; ? = inconclusive; . = no result given. Not all compounds are listed (hit frequency here may not be typical).

SMILES	Vaccinia stage	Vaccinia stage Venus
Cc1noc(C)c1NC(=O)Nc1ccc2c(c1)C(=O)N([C@H](C)CO)C[C@H](C)[C@H](CN(C)C(=O)c1ccccc1)OCCCC[C@@H](C)O2	29.1	18.9
COc1ccc(S(=O)(=O)Nc2ccc3c(c2)C(=O)N([C@H](C)CO)C[C@H](C)[C@H](CN(C)C(=O)Nc2cccc4ccccc24)O3)cc1	20.5	10.6
CCCNC(=O)N(C)C[C@@H]1Oc2cc(Br)ccc2S(=O)(=O)N([C@H](C)CO)C[C@@H]1C	19.0	9.3
O=C(NCC[C@H]1CC[C@H](NC(=O)C2CCOCC2)[C@@H](CO)O1)c1ccc(F)cc1	-0.9	1.5
Cc1ccc(S(=O)(=O)N2C[C@@H](O)COC[C@H]3O[C@H](CC(=O)NCc4ccc5c(c4)OCO5)CC[C@@H]32)cc1	-23.5	-15.5
N#C[C@@H]1[C@H](c2ccc(C3=CCCCC3)cc2)[C@H](CO)N1S(=O)(=O)c1cccc(F)c1	-4.5	-0.2
C[C@@H]1CN([C@H](C)CO)C(=O)CCCn2cc(nn2)CO[C@H]1CN(C)C(=O)NC1CCCCC1	25.4	18.4
O=C(c1cccnc1)N1C[C@@H]2[C@H](c3ccccc31)[C@H](CO)N2C(=O)C1CCCCC1	9.9	0.1
C[C@H]1CN([C@@H](C)CO)C(=O)c2cccc(NC(=O)Nc3ccccc3)c2O[C@H]1CN(C)Cc1ccc2c(c1)OCO2	-29.2	-19.6
O=C(C[C@H]1CC[C@@H](NC(=O)CN2CCOCC2)[C@H](CO)O1)NCc1cccc(F)c1	7.5	5.2
C[C@H](CO)N1C[C@H](C)[C@@H](CN(C)S(=O)(=O)c2cccs2)Oc2ccc(NS(C)(=O)=O)cc2CC1=O	8.7	0.4
C[C@@H]1CN([C@@H](C)CO)C(=O)c2cc(NS(C)(=O)=O)ccc2O[C@@H](C)CCCCO[C@H]1CN(C)C(=O)c1ccccc1	1.1	-2.6
C[C@H]1CN([C@@H](C)CO)C(=O)c2cccc(NC(=O)c3cnccn3)c2O[C@@H]1CN(C)Cc1ccncc1	7.3	3.7
Cc1ccc(-c2ccc3c(c2)O[C@@H](CN(C)Cc2cccc(C(=O)O)c2)[C@H](C)CN([C@H](C)CO)S3(=O)=O)cc1	-32.5	-31.2
CN1CCN(C(=O)[C@@H]2[C@@H](CO)[C@@H]3Cn4c(ccc(C5=CCCC5)c4=O)[C@H]2N3S(C)(=O)=O)CC1	16.0	4.3
CNC[C@@H]1Oc2c(NC(=O)Nc3cccc4ccccc34)cccc2C(=O)N([C@@H](C)CO)C[C@H]1C	3.7	5.2
CCCC(=O)N1CC2(CCN(C(C)=O)CC2)c2c(n(C)c3cc(OC)ccc23)[C@@H]1CO	9.6	4.3
CO[C@H]1CN(C)C(=O)c2ccc(NC(=O)Nc3cc(F)ccc3F)cc2OC[C@H](C)N(C(=O)c2ccccn2)C[C@H]1C	7.2	2.4
CC(C)CC#Cc1ccc2c(c1)O[C@H](CN(C)Cc1ccc(F)cc1)[C@@H](C)CN([C@H](C)CO)S2(=O)=O	-0.9	-7.2
COc1ccc(CN(C)C[C@@H]2Oc3ccc(NC(=O)Nc4ccc(F)cc4)cc3C(=O)N([C@H](C)CO)C[C@H]2C)cc1	-11.9	-6.3
COc1cccc(-c2ccc3n(c2=O)C[C@H]2[C@H](CO)[C@@H](C(=O)NC4Cc5ccccc5C4)N[C@@H]32)c1	-3.6	-0.5
C[C@@H]1CN([C@H](C)CO)C(=O)c2cc(C#CC3CC3)cnc2O[C@H]1CN(C)C(=O)Nc1ccc(F)cc1	-2.3	-2.8
C[C@@H]1CCCCO[C@@H](CN(C)C(=O)NC2CCCCC2)[C@H](C)CN([C@@H](C)CO)C(=O)c2cc(NC(=O)Cc3ccccc3)ccc2O1	-31.1	-18.0
COc1ccc(NC(=O)Nc2ccc3c(c2)C(=O)N([C@H](C)CO)C[C@@H](C)[C@@H](CN(C)Cc2ccc4c(c2)OCO4)OCCCC[C@@H](C)O3)cc1	?	.
C[C@H](CO)N1C[C@H](C)[C@H](CN(C)Cc2ccc(-c3ccccc3)cc2)Oc2ccc(NC(=O)CCCN(C)C)cc2C1=O	?	.

The final 2 entries of the section above are carried over, then new ones follow:
SMILES	Vaccinia stage	Vaccinia stage Venus
COc1ccc(NC(=O)Nc2ccc3c(c2)C(=O)N([C@H](C)CO)C[C@@H](C)[C@@H](CN(C)Cc2ccc4c(c2)OCO4)OCCCC[C@@H](C)O3)cc1	?	.
C[C@H](CO)N1C[C@H](C)[C@H](CN(C)Cc2ccc(-c3ccccc3)cc2)Oc2ccc(NC(=O)CCCN(C)C)cc2C1=O	?	.
C[C@H]1CN([C@@H](C)CO)C(=O)c2cc(-c3ccccc3F)cnc2O[C@H]1CN(C)Cc1ccc(F)cc1	-27.4	-9.9
O=S(=O)(Cc1ccccc1)N1CCCCN2[C@@H](CO)[C@H](c3ccc(-c4ccccc4)cc3)[C@@H]2C1	-24.8	-30.0
CCCNC(=O)[C@@H]1[C@@H](CO)[C@@H]2Cn3c(ccc(-c4cccc(F)c4)c3=O)[C@H]1N2C(=O)c1ccccn1	-2.9	-3.1
C[C@@H]1CN([C@@H](C)CO)C(=O)Cc2cc(NC(=O)CCN3CCOCC3)ccc2O[C@@H]1CN(C)C(=O)Nc1ccc(C(F)(F)F)cc1	3.6	2.7
CCNC(=O)[C@H]1[C@H](CO)[C@H]2Cn3c(ccc(C4=CCCCC4)c3=O)[C@H]2N1C(=O)CC1CC1	7.3	0.0
O=C(c1ccccc1F)N1CC(=O)N2[C@H](CO)[C@H](c3ccc(C#Cc4ccccc4)cc3)[C@H]2C1	?	.
C[C@H]1CN([C@@H](C)CO)S(=O)(=O)c2ccc(C#CCC3CCCC3)cc2O[C@@H]1CN(C)C(=O)c1cnccn1	-20.0	-17.9
Cc1noc(C)c1S(=O)(=O)Nc1ccc2c(c1)C(=O)N([C@@H](C)CO)C[C@H](C)[C@H](CN(C)S(=O)(=O)c1cn(C)cn1)O2	9.6	8.2
COc1cc(CO)cc(I)c1O[C@H]1C=C(C(=O)NCCO)C[C@@H](NC[C@@H]2CCCO2)[C@@H]1O	5.2	-2.5
CC(C)NC(=O)Nc1ccc2c(c1)C(=O)N([C@@H](C)CO)C[C@@H](C)[C@H](CN(C)Cc1ccccc1)O2	6.0	3.7
COCC(=O)N1C[C@H](C)[C@H](OC)CN(C)C(=O)c2cc(NC(=O)C3CCC3)ccc2OC[C@@H]1C	11.1	9.7
CCCC#Cc1ccc([C@@H]2[C@@H](CO)N3CCCCN(S(=O)(=O)Cc4ccccc4)C[C@H]23)cc1	?	.
C[C@H]1CN([C@@H](C)CO)C(=O)Cc2cc(NC(=O)C3CCCCC3)ccc2O[C@H]1CN(C)S(=O)(=O)c1cn(C)cn1	7.4	5.5
COc1ccc(CN(C)C[C@@H]2OCCCC[C@@H](C)Oc3ccc(NS(=O)(=O)c4cn(C)cn4)cc3C(=O)N([C@H](C)CO)C[C@H]2C)cc1	10.8	0.9
CCNC(=O)[C@H]1[C@H](CO)[C@H]2Cn3c(ccc(-c4ccccc4F)c3=O)[C@@H]1N2CCC(F)(F)F	10.3	7.4
C[C@@H]1CCCCO[C@@H](CN(C)S(=O)(=O)c2ccc(F)cc2)[C@H](C)CN([C@H](C)CO)C(=O)c2cc(NC(=O)CCCN(C)C)ccc2O1	-14.2	-12.1
COc1ccc(NC(=O)Nc2ccc3c(c2)C(=O)N([C@H](C)CO)C[C@H](C)[C@@H](CN(C)C(=O)NC2CCCCC2)OCCCC[C@@H](C)O3)cc1	-3.5	-5.7
C[C@@H]1CN([C@H](C)CO)C(=O)c2cc(NC(=O)Nc3ccc4c(c3)OCO4)ccc2O[C@@H](C)CCCCO[C@@H]1CN(C)CC1CCCCC1	?	.
C[C@H]1CN([C@@H](C)CO)C(=O)c2cccc(NC(=O)c3nc4ccccc4s3)c2O[C@H]1CN(C)Cc1ccc(-c2ccccc2)cc1	-15.1	-14.9
C[C@@H]1CN([C@@H](C)CO)C(=O)Cc2cc(NC(=O)NC3CCCCC3)ccc2O[C@@H]1CN(C)C(=O)Nc1ccccc1	25.3	17.1
CS(=O)(=O)Nc1ccc2c(c1)[C@H]1C[C@@H](CC(=O)NCc3ccc(Cl)cc3)O[C@H](CO)[C@H]1O2	-2.1	-1.2
C[C@@H]1CN([C@@H](C)CO)C(=O)c2cccc(NS(=O)(=O)c3ccccc3)c2O[C@@H]1CN(C)S(C)(=O)=O	15.8	10.8
C[C@@H]1CN([C@H](C)CO)C(=O)c2cc(-c3ccccc3F)cnc2O[C@@H]1CN(C)Cc1ccc(F)cc1	-31.9	-17.0
C[C@H](CO)N1C[C@H](C)[C@@H](CN(C)Cc2cccnc2)Oc2ncc(-c3ccncc3)cc2C1=O	33.8	23.5
CCCNC(=O)N1[C@H](CO)[C@@H](c2ccc(C3=CCCCC3)cc2)[C@@H]1C#N	-21.9	-21.2

Quoted at random: two entries already listed.
SMILES	Vaccinia stage	Vaccinia stage Venus
CO[C@H]1CN(C)C(=O)c2ccc(NC(=O)Nc3cc(F)ccc3F)cc2OC[C@H](C)N(C(=O)c2ccccn2)C[C@H]1C	7.2	2.4
O=C(NCC[C@H]1CC[C@H](NC(=O)C2CCOCC2)[C@@H](CO)O1)c1ccc(F)cc1	-0.9	1.5

Additional entries
SMILES	Vaccinia stage	Vaccinia stage Venus
O=C(C[C@@H]1CC[C@@H](NC(=O)c2ccncc2)[C@H](CO)O1)Nc1ccc(-c2ccccc2)cc1	1.4	5.6
COCC(=O)N1[C@H](CO)[C@@H](c2ccccc2-c2cccc(F)c2)[C@@H]1C#N	8.0	9.4
O=C(c1cccc(F)c1)N1CCCCN2[C@@H](CO)[C@@H](c3ccc(-c4ccccc4)cc3)[C@@H]2C1	?	.
CCC(=O)N1C[C@@H](C)[C@H](OC)CN(C)C(=O)c2ccc(NC(=O)C3CCCCC3)cc2OC[C@@H]1C	14.5	7.1
O=C(CC(F)(F)F)N1C[C@@H]2[C@H](c3ccccc31)[C@@H](CO)N2CC1CCOCC1	?	.
CN1CCN(C(=O)C2=C[C@@H](C3CC3)C[C@@H](OCCCCO)O2)CC1	25.7	14.2
CCC(=O)N1C[C@@H]2[C@H](c3ccccc31)[C@H](CO)N2Cc1ccccc1F	-5.1	6.9
C[C@@H]1CCCCO[C@@H](CN(C)C(=O)Nc2ccc3c(c2)OCO3)[C@@H](C)CN([C@@H](C)CO)C(=O)c2cc(NC(=O)Nc3ccc(F)cc3)ccc2O1	14.7	8.9
COCC(=O)Nc1ccc2c(c1)C(=O)N(C)[C@H]1CC[C@@H](CC(=O)NCCc3ccccc3)O[C@H]1CO2	-10.0	-2.4
CC(C)c1cn(CC[C@H]2CC[C@@H](NS(=O)(=O)c3ccc(Cl)cc3)[C@H](CO)O2)nn1	-9.9	-3.5
C[C@H]1CCCCO[C@H](CN(C)C)[C@@H](C)CN([C@@H](C)CO)C(=O)c2cc(NC(=O)c3ccncc3)ccc2O1	5.6	4.2
COc1cccc(CNC(=O)C[C@H]2CC[C@@H](NC(C)=O)[C@@H](CO)O2)c1	3.4	8.1
CNC[C@H]1OCCCC[C@H](C)Oc2ccc(NC(=O)Nc3ccc4c(c3)OCO4)cc2C(=O)N([C@H](C)CO)C[C@H]1C	14.0	9.6
COc1ccc(S(=O)(=O)Nc2ccc3c(c2)C(=O)N([C@@H](C)CO)C[C@H](C)[C@@H](CN(C)C(=O)C2CCCCC2)OCCCC[C@H](C)O3)cc1	?	.
COc1ccccc1CNC(=O)C[C@H]1C[C@H]2c3cc(NC(=O)Cc4ccncc4)ccc3O[C@H]2[C@H](CO)O1	-6.1	-0.6
CC(=O)N[C@@H]1CC[C@H](CC(=O)NCc2ccc(Cl)cc2)O[C@@H]1CO	13.0	8.4
C[C@@H]1CN([C@H](C)CO)S(=O)(=O)c2ccc(-c3cccc(F)c3)cc2O[C@@H]1CN(C)CC1CC1	-15.5	-16.5
C[C@H](CO)N1C[C@H](C)[C@@H](CN(C)Cc2cccc(F)c2)Oc2ncc(C3=CCCCC3)cc2C1=O	-34.3	-28.9
Cc1cccc(S(=O)(=O)N2CCCCN3[C@H](CO)[C@H](c4ccc(C#CC(C)C)cc4)[C@H]3C2)c1	7.1	1.2
COc1ccc(CN(C)C[C@@H]2OCCCC[C@H](C)Oc3ccc(NC(=O)Nc4ccc(F)cc4)cc3C(=O)N([C@H](C)CO)C[C@@H]2C)cc1	?	.
CC(C)NC(=O)Nc1cccc2c1O[C@@H](CN(C)Cc1ccc(C(=O)O)cc1)[C@@H](C)CN([C@H](C)CO)C2=O	24.3	8.9
CCNC(=O)[C@@H]1[C@@H](CO)[C@@H]2Cn3c(ccc(-c4ccc(F)cc4)c3=O)[C@H]1N2C	1.0	11.7
C[C@H](CO)N1C[C@H](C)[C@@H](CN(C)S(C)(=O)=O)Oc2ccc(NC(=O)CCCCCC(=O)Nc3ccccc3N)cc2C1=O	18.1	9.7
C[C@H](CO)N1C[C@H](C)[C@H](CN(C)Cc2ccc(Oc3ccccc3)cc2)Oc2ccc(NC(=O)CCCN(C)C)cc2C1=O	?	.
O=S(=O)(c1ccccc1F)N1CC[C@@H]2[C@@H](CO)Nc3ccc(-c4cccc(F)c4)cc3[C@@H]21	-27.0	-23.9
CCC(=O)Nc1ccc2c(c1)C(=O)N(C)C[C@H](OC)[C@@H](C)CN[C@@H](C)CO2	-15.5	-7.3

Molecules shown so far that contain two or more sulfur atoms (3):
SMILES	Vaccinia stage	Vaccinia stage Venus
C[C@H](CO)N1C[C@H](C)[C@@H](CN(C)S(=O)(=O)c2cccs2)Oc2ccc(NS(C)(=O)=O)cc2CC1=O	8.7	0.4
Cc1noc(C)c1S(=O)(=O)Nc1ccc2c(c1)C(=O)N([C@@H](C)CO)C[C@H](C)[C@H](CN(C)S(=O)(=O)c1cn(C)cn1)O2	9.6	8.2
C[C@@H]1CN([C@@H](C)CO)C(=O)c2cccc(NS(=O)(=O)c3ccccc3)c2O[C@@H]1CN(C)S(C)(=O)=O	15.8	10.8
